VACV mCherry inh – qHTS for Stage-Specific Inhibitors of Vaccinia Orthopoxvirus: mCherry Reporter Primary qHTS. Potency, µM (titrated, usually from 36.5 µM), inactives show at the highest dose activity change, negative = inhibition, hits mostly inhibitors. Vaccinia virus mCherry reporter infection, fluorescence; about a quarter of the inactives have no number. 310,000 compounds, 0.63% hits; active = well fitted inhibition curve with a large enough effect; inconclusive = small, poorly fitted or top-dose-only effect; inactive = no such curve, though single readings can be large or run the other way; tested in A549 cells; note: nearly all actives have a fitted effect of over 35% in size; inactives centre near -10
Vaccinia Venus – qHTS for Stage-Specific Inhibitors of Vaccinia Orthopoxvirus: Venus Reporter Primary qHTS; Vaccinia virus Venus reporter expression, fluorescence; Potency, µM (titrated, usually from 36.5 µM), inactives show top-dose activity change, negative = inhibition, hits mostly inhibitors; 330,000 compounds, 0.46% hits; AID 720580, 2013; active means well fitted inhibition curve with a large enough effect; inconclusive means small, poorly fitted or top-dose-only effect; inactive means no such curve, though single readings can be large or run the other way; tested in A549 cells; note: nearly all actives have a fitted effect of over 30% in size; inactives centre near -10
* marks the source's active call; other numbers are inactive results; i = inactive; ? = inconclusive; · = not tested or not shown; & = joins results of further samples; [ ] = dose if it differs, or a comment. % is set by controls: 0 for no effect and ±100 for the full control effect; potency is the fitted concentration of half-maximal effect.

SMILES | VACV mCherry inh | Vaccinia Venus
Cc1nn(CC(=O)NCCN2CCOCC2)c(=O)c2ccccc12 | -1% | -14%
Cc1cnc(-n2ncc(C(=O)NCC(C)(C)N3CCOCC3)c2C)nc1-c1cccs1 | -8% | 10%
O=C(CSc1nnc(-c2ccccn2)n1Cc1ccccc1)NC1CCCC1 | -7% | -9%
O=C(CN(Cc1ccccc1)C(=O)CCC(=O)Nc1nccs1)NCC1CCCO1 (stereo not given) | i | -12%
COc1cccc(NC(=O)CS(=O)(=O)Cc2nc(-c3ccc(C)cc3)oc2C)c1 | ? | ?
NS(=O)(=O)c1cccc(NC(=O)CCCC2CCCCC2)c1 | -14% | 0%
COc1cccc(-c2nnc(SCC(=O)N3CCc4ccccc43)o2)c1 | -13% | -6%
COc1cc2c(cc1OC)C(c1ccc(N)cc1)=NNC(=O)C2 | -29% | -23%
CC/C(=N\NC(=O)Nc1ccccc1)c1ccccc1 | -30% | -20%
OCC(O)CSc1nc(-c2ccccc2)nc2c1CCC2 (stereo not given) | -9% | -19%
O=C(CN1C(=O)c2ccccc2S1(=O)=O)NCCc1ccccc1 | -6% | -8%
COCCNc1cc(C)nc2cc(-c3ccc(C)cc3)nn12 | -5% | -9%
Cc1cccc(Nc2nnc(C)c(=O)n2N)c1 | -10% | -3%
Cc1nc2cccnc2n1-c1cccc(C(=O)NCc2cccc(Cl)c2)c1 | -24% | ?
NC(=Nc1ccc(N)cc1)C(N)=Nc1ccc(N)cc1 | ? | 4%
Cc1cc(/C=C2/C(=O)N(C)C(=S)N2C)c(C)n1C1CC1 | ? | 20%
CN1CCCN(C(=O)c2cccc(Br)c2)CC1 | -3% | -9%
O=c1cc[nH]c2cc(C(F)(F)F)ccc12 | i | ?
CC(C)Cn1c(=O)c2sccc2n2c(CCCC(=O)NCC(C)c3ccccc3)nnc12 (stereo not given) | -14% | -11%
CC/C(=N\Nc1nncc2ccccc12)c1ccc(F)cc1 | ? | 3%
CN1CCN(c2nc3c(S(=O)(=O)c4ccc(Cl)cc4)nnn3c3ccsc23)CC1 | ? | ?
Cc1noc(C(=O)NCc2cccnc2)c1Cl | i | -3%
O=C1CN(C(=O)c2cnccn2)c2ccccc2N1 | 1% | 5%
O=C(COC(=O)Cc1ccc(F)cc1)NC1CCCC1 | i | -17%
C=CCn1c(SCC(=O)NCC(=O)OCC)nnc1-c1cccc(OC)c1 | -16% | -12%

Continued; the last 6 above are carried over.
SMILES | VACV mCherry inh | Vaccinia Venus
CC/C(=N\Nc1nncc2ccccc12)c1ccc(F)cc1 | ? | 3%
CN1CCN(c2nc3c(S(=O)(=O)c4ccc(Cl)cc4)nnn3c3ccsc23)CC1 | ? | ?
Cc1noc(C(=O)NCc2cccnc2)c1Cl | i | -3%
O=C1CN(C(=O)c2cnccn2)c2ccccc2N1 | 1% | 5%
O=C(COC(=O)Cc1ccc(F)cc1)NC1CCCC1 | i | -17%
C=CCn1c(SCC(=O)NCC(=O)OCC)nnc1-c1cccc(OC)c1 | -16% | -12%
O=C(CC1SC(N2CCCCC2)=NC1=O)Nc1cccc(C(=O)NCc2ccccc2)c1 (stereo not given) | i | -10%
CCc1cccc(C)c1NC(=O)Cn1c(NCCO)nc2ccccc21 | -18% | -7%
Cc1cc(Cl)ccc1Oc1nc(-c2ccccc2)ncc1S(C)(=O)=O | · | -12%
Cc1cccc(C)c1N1CCN(S(=O)(=O)c2ccc(F)cc2)CC1 | · | -5%
CCOc1cc(N2CCOCC2)c(OCC)cc1NC(=O)Cc1cn2ccsc2n1 | · | -3%
Cc1ccc(C)c(C(=O)CCC(=O)Nc2ccc(F)cc2)c1 | -15% | -11%
N#Cc1c(N)nc2c3c(sc(=N)c2c1N)NC(=O)CC3c1ccccc1Cl (stereo not given) | ? | ?
CCN(CC(=O)Nc1ccc(NC(C)=O)cc1)CC(=O)Nc1cc(C)on1 | i | -6%
COc1ccccc1CNC(=O)COc1ccc(S(=O)(=O)N2CCOCC2)cc1 | -1% | -9%
CCO[C@H]1OC(C(=O)O)=C[C@@H](c2ccc(C(F)(F)F)cc2)[C@@H]1CCCO | i | -14%
Cc1[nH]n(-c2ccccc2)c(=O)c1C(c1ccc(C(=O)O)cc1)c1c(C)[nH]n(-c2ccccc2)c1=O | -19% | -16%
COc1ccc(NC(=O)c2cc3c([nH]c2=O)CC(c2ccccc2)CC3=O)cc1 (stereo not given) | -13%[7.34 µM] | -7%[7.34 µM]
C=CCN(CC=C)c1ncnc2[nH]ncc12 | i | -1%
COc1ccccc1/C=C/CN1CCCCC1 | -15% | -6%
Cn1c(=O)oc2cc(S(=O)(=O)N3CCC(C(=O)N4CCN(c5ccccc5)CC4)CC3)ccc21 | i | -14%
Cc1ccc(CNC(=O)C2(NC(=O)Nc3ccc(C)cc3)CCCCC2)cc1 | -14% | -9%
O=C(NC1CCCCC1)C(c1ccccc1)N(C(=O)c1csnn1)C1CCCC1 (stereo not given) | -5% | 0%
O=C(O)C1=C[C@H](c2ccccc2)C[C@H](OCc2ccc(CO)cc2)O1 | i | -9%
Cc1ccc([N+](=O)[O-])cc1NC(=O)C1CCN(S(C)(=O)=O)CC1 | -14% | -4%
COCc1cc(=O)n2[nH]c(C)cc2n1 | · | 0%
Cc1ccc(Cn2cc(C(=O)c3ccc(F)cc3)c(=O)c3cc4c(cc32)OCCO4)cc1 | -19%&-26% | -21%&-25%
COc1cc(S(=O)(=O)N2CCOCC2)ccc1NC(=O)COc1ccc(N(C)S(=O)(=O)c2ccc(C)cc2)cc1 | i | -14%
CCC1(CC)C(=O)C2=C3C1[C@H](C(=O)OC)CC(C(=O)OC)C[C@H]3n1c(=O)n(C)c(=O)n1[C@H]2C (stereo not given in full) | -14% | 3%
COC(=O)[C@]1(Cc2ccccc2)N[C@H](c2ccc(SC3CCCCC3)c(OC)c2)[C@@H]2C(=O)N(C)C(=O)[C@@H]21 | -22% | -8%
Cc1ccc(C(=O)CSc2nnc(-c3snnc3C)n2C2CC2)cc1 | i[7.34 µM] | -2%[7.34 µM]
Further results.
SMILES | VACV mCherry inh | Vaccinia Venus
Cc1cc(NS(=O)(=O)c2ccc(NC(=O)COc3ccc(Br)cc3)cc2)nc(C)n1 | i[7.34 µM] | 0%[7.34 µM]
CCc1ccc2oc(-c3ccc(C)c(NC(=O)COc4ccc(Cl)cc4)c3)nc2c1 | 17% | -5%
CCOC(=O)N1CCN(CCC(=O)Nc2ccccc2OC)CC1 | ? | -24%
O=C(Nc1cc(Cl)ccc1N1CCOCC1)c1cccnc1Cl | i | -12%
O=C(COc1ccccc1Cl)NCCc1ccc2c(c1)OCCO2 | -20% | -6%
CCCNC(=O)N[C@H]1C=C[C@H](CC(=O)NC2CCCCC2)O[C@@H]1CO | -9% | -16%
O=C(N/N=C/c1c(O)n(CCc2ccccc2)c(=O)[nH]c1=O)c1ccncc1 | -14% | -2%
O=C(Nc1cccnc1)C1CC(=O)N(c2ccc(F)cc2)C1 (stereo not given) | -4% | -4%
CC(=O)Nc1ccc(-c2ccnc3c2CC(C)(C(=O)Nc2cccc(Oc4ccccc4)c2)O3)cc1 (stereo not given) | ? | ?
CCOC(=O)CN1C(=O)N(c2ccc(C)c(C)c2)S(=O)(=O)c2ccccc21 | 2% | -2%
CCOc1ccc(N2CC(C(=O)Nc3ccccc3C(=O)NC3CC3)CC2=O)cc1 (stereo not given) | -17% | -24%
Cc1ccc(NC(=S)NCC(C)C)cc1 | i | -11%
CCCSc1nc2sc3c(c2c(=O)n1-c1ccccc1)CCC(C)C3 (stereo not given) | -10% | -5%
Cc1cccc(CNc2nc(-c3c(C)noc3C)nc3ccccc23)c1 | -16% | -16%
O=c1[nH]c(CN2CCN(Cc3ccccc3)CC2)nc2scc(-c3ccccc3)c12 | i | -12%
COc1ccc(/C(N)=N/OC(=O)c2ccc3c(c2)OCO3)cc1 | -4% | -6%
CCC(=NCCN1CCNCC1)C1=C(O)CC(C)(C)CC1=O | -13% | -12%
Cc1cc(C)n(-c2ccc(C(C)C)cc2)c(=O)c1C#N | i | -10%
c1ccc(C(Cc2nc(-c3cccnc3)no2)c2ccccc2)cc1 | -19% | -16%
CC(C)CCNC(=O)c1cc(S(=O)(=O)N2CCC3(CC2)OCCO3)ccc1F | i | -13%
CCOc1ccc(CNC(=O)C2CCCN(S(=O)(=O)N3CCC(C)CC3)C2)cc1OC (stereo not given) | i | -20%
CN(Cc1ccccc1)C(=O)c1ccc(NC(=O)Cc2ccc(NC(=O)C3CCCN(C(=O)c4ccccc4)C3)cc2)cc1 (stereo not given) | -11% | -11%
Cc1ccc(S(=O)(=O)/N=C(/Nc2ccccc2C)c2ccccc2)cc1 | -22% | -8%
Nc1nnc(SCc2cccc(C(F)(F)F)c2)s1 | -25% | -26%
O=C(C1CCN(S(=O)(=O)c2cccnc2)CC1)N1CCN(c2ccccc2Cl)CC1 | · | -18%
Additional structures:
SMILES | VACV mCherry inh | Vaccinia Venus
N#Cc1c2n(c3c(N)ncnc13)CCCCC2 | -16% | -9%
COc1ccc(C(=O)NCCS(=O)(=O)N2CCc3ccccc3C2)cc1 | -21% | -21%
O=C(NCCOc1ccccc1Cl)c1cccc2c1C(=O)c1ccc(Cl)cc1S2(=O)=O | -15% | ?
COc1cc(CNC(C)C23CC4CC(CC(C4)C2)C3)ccc1OCC(=O)NC(C)(C)C (stereo not given) | ? | -23%
CCN(CC)c1ccc(N2C(=O)/C(=C/c3ccccn3)SC2=S)cc1 | i | -10%
CCCNC(=S)Nc1ccc(CC(=O)OC)cc1 | -7% | -3%
COc1ccc(-n2nc(C(=O)N(C)C)nc2-c2ccccc2)cc1 | i | -14%
Cn1nc(C(=O)Nc2ccc(S(=O)(=O)N3CCCCC3)cc2)c2ccccc2c1=O | i | -14%
CC(OC(=O)CN1C(=O)c2ccccc2C1=O)C(=O)NC1CCCC1 (stereo not given) | -3% | -5%
Cc1ccc2oc3c(c(=O)c2c1)C(c1ccc(F)cc1)N(c1nc(C)c(C)s1)C3=O (stereo not given) | -19% | -23%
Cn1c(=O)c2[nH]c(SCc3cccnc3)nc2n(C)c1=S | i | -4%
Cc1cccc(CCN(C(=O)c2snc(C(N)=O)c2N)C(C(=O)NCC2CCCO2)c2ccc(F)cc2)c1 (stereo not given) | -11% | 6%
COc1ccc(Cl)cc1NS(=O)(=O)c1cccc(C(=O)NCCCN2CCOCC2)c1 | i | -12%
COC(=O)c1c(NC(=O)CN(c2ccc(C)c(C)c2)S(C)(=O)=O)sc2c1CCCC2 | -2% | -5%
CCOC(=O)Cn1nc(/C=C/c2ccc(C)cc2)ccc1=O | · | ?
CCOC(=O)N1CCC(NC(=O)c2cnn3c2NC(c2ccco2)CC3C(F)(F)F)CC1 (stereo not given) | 35%[activator] | 40%[activator]
O=C(CSc1oc(-c2ccccc2)nc1S(=O)(=O)c1ccc(Cl)cc1)c1ccccc1 | -1% | -5%
COc1ccc(OC)c(NC(=S)N2CCCC2)c1 | i | -8%
Cc1ccc(-c2cn(-c3cccc(Cl)c3)c(S(=O)(=O)CC(=O)Nc3ccccc3F)n2)cc1 | -26% | -18%
CN(C(=O)c1cccc(NC(=O)Cc2ccc(NC(=O)C3CCCN(C(=O)C4CCC4)C3)cc2)c1)C1CC1 (stereo not given) | -8% | -10%
Cc1cc(C)cc(C(=O)NCc2nc(-c3cccc(NC(=O)c4ccccn4)c3)oc2C)c1 | -13% | 0%
S=C(NCc1ccco1)Nc1ccc(Oc2ccc(Cl)cc2)cc1 | i[7.34 µM] | -11%[7.34 µM]
C/C(=N\NC(=S)NC(C)C)c1ccc2c(c1)OCCO2 | ? | -18%
COC(=O)c1sc(NC(=O)CCCn2nc([N+](=O)[O-])cc2C)c(C(=O)OC)c1C | i | -12%
Cc1nn(C)cc1C(=O)Nc1ccc2c(c1)OCCO2 | 14% | 0%
Nc1ncnc2c1nc(Cl)n2C1OC(CO)C(O)C1O (stereo not given) | ? | -28%
COc1ccc(C2C(C(=O)N3CCN(C)CC3)c3ccccc3C(=O)N2C2CCCCC2)cc1 (stereo not given) | -2% | -11%
COc1cc(C(=O)OCCCN2CCCN(CCCOC(=O)c3cc(OC)c(OC)c(OC)c3)CC2)cc(OC)c1OC | -6% | -9%
OCC1CO1 (stereo not given) | i | -7%

Compounds shown so far that contain a COOH group:
SMILES | VACV mCherry inh | Vaccinia Venus
CCO[C@H]1OC(C(=O)O)=C[C@@H](c2ccc(C(F)(F)F)cc2)[C@@H]1CCCO | i | -14%
Cc1[nH]n(-c2ccccc2)c(=O)c1C(c1ccc(C(=O)O)cc1)c1c(C)[nH]n(-c2ccccc2)c1=O | -19% | -16%
O=C(O)C1=C[C@H](c2ccccc2)C[C@H](OCc2ccc(CO)cc2)O1 | i | -9%

As entered above:
Vaccinia Venus with COc1ccc(Cl)cc1NS(=O)(=O)c1cccc(C(=O)NCCCN2CCOCC2)c1 → -12%
Vaccinia Venus with CC(OC(=O)CN1C(=O)c2ccccc2C1=O)C(=O)NC1CCCC1 (stereo not given) → -5%
Vaccinia Venus with COc1cc(CNC(C)C23CC4CC(CC(C4)C2)C3)ccc1OCC(=O)NC(C)(C)C (stereo not given) → -23%

Compound activity: PubChem BioAssay, National Center for Advancing Translational Sciences (NCATS)
